# miR-21 reporter – miR-21 reporter, rising signal; 340,000 tested, under 10 active; Potency, µM (top dose mostly 38.3 µM), for the others: at the highest dose reporter change, positive = more light; HeLa miR-21 FLuc reporter, luciferase, 48 h; active = well fitted rising curve with a large enough effect; inconclusive = small, poorly fitted or top-dose-only effect; inactive = no such curve, though single readings can be large or run the other way;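 note: % of control where 0% means no effect; miR-21 action dims this reporter so a rising signal means less miR-21 action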
#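 HeLa cells stably expressing CMV-driven firefly luciferase with a downstream miR-21 binding sequence, endogenously expressing miR-21, were treated with titrations (up to about 40uM final) for 48 hours at 37 degree Celsius. Luciferase luminescence was read after lysis.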
# Starred values were filed as active, the others as inactive; ? = inconclusive. The list is partial (hit frequency here may not be typical).
SMILES,miR-21 reporter
O=c1oc2ccc3ccccc3c2cc1-c1nnc(Nc2ccccc2)s1,-1%
COc1ccc(OC)c(NC(=O)c2noc3c2CCCC3)c1,-31%
COc1ccc(CCNC(=O)c2ccc3c(c2)N(Cc2ccc(Cl)cc2)CCS3)c(OC)c1,8%
O=C(CCC1N=C2c3ccccc3N=C(SCc3ccccc3F)N2C1=O)NC1CCCCC1 (stereo not drawn),-2%
Cc1cccc(OC(=O)c2cc(-c3ccc4c(c3)OCCO4)on2)c1C,10%
CCN1c2ccccc2-c2nc(SCC(=O)Nc3c(C)cc(C)cc3C)ncc2S1(=O)=O,29%
CCOc1ccc(C(=O)NCCn2cc(SCC(=O)NCCc3ccc(OC)c(OC)c3)c3ccccc32)cc1,27%
COc1ccc(C2CC(=O)c3cc(-c4nc(-c5cccc([N+](=O)[O-])c5)cs4)c(=O)n(-c4ccc(F)cc4)c3C2)cc1 (stereo not drawn),-3%
CCOC(=O)Cc1ccc(NC(=O)N2CCC(CN3CCCCCC3)CC2)cc1,-2%
O=C(Nc1ccc2oc(-c3ccc(Cl)cc3)nc2c1)c1ccc2ccccc2c1,-3%
O=C(CN1C(=O)COc2ccc(S(=O)(=O)Nc3ccccc3)cc21)NCc1ccccc1Cl,-2%
CCCCn1c(=O)c2oc3ccccc3c2n(Cc2ccc(C)cc2)c1=O,1%
CCOC(=O)C(CC)Sc1c(CC)cnc2c1c(=O)n(C)c(=O)n2C (stereo not drawn),-9%
COc1cc(NC(=O)Nc2nnc(N3CCCCC3)s2)cc(OC)c1,11%
O=C(Nc1ccc(OC(F)(F)F)cc1)c1cc2c(=O)n3ccccc3nc2s1,-7%
CCOC(=O)c1ccc(NC(=O)CC2C(=O)N(c3cccc(OC)c3)C(=O)N2C2CCCCC2)cc1 (stereo not drawn),16%
COc1ccc(CNC(=O)CN2C(=O)CCn3nc(-c4ccccc4)cc32)c(OC)c1,1%
CCc1ccc(C(=O)Nc2ccc3nn(-c4ccc(C)c(Cl)c4)nc3c2)cc1,-33%
Cc1ccc(N(Cc2cccs2)C(=O)c2ccccc2[N+](=O)[O-])cc1,13%
O=C(Cc1cccs1)Nc1c(C(=O)Nc2ccc(F)cc2)oc2ccccc12,-6%
Cc1ccc(OC(=O)CSc2nnc(-c3ccc4c(c3)OCO4)o2)cc1,-1%
Cc1ccc(CSc2cn(CC(=O)N3CCCCC3)c3ccccc23)cc1,-14%
O=C(Nc1ccc2[nH]c(=O)c(=O)[nH]c2c1)c1cccc(F)c1,6%
CCOc1ccc(NC(=O)CSc2nnc(-c3ccc(C)cc3)c(-c3ccc(C)cc3)n2)cc1,-6%
Cc1ccc(OCC(=O)N(Cc2nc(-c3ccccc3)no2)C(C)C)cc1C,0%
COc1cccc(CNC(=O)CCc2cn(Cc3ccccc3Cl)c3ccccc23)c1,28%
O=C(Nc1ccc(F)cc1F)c1cc2c(=O)n3ccccc3nc2s1,-14%
Cc1ccccc1C(=O)Nc1cc2c(cc1N1CCOCC1)n(C)c(=O)n2C,-21%
COc1ccc(Cl)cc1Nc1ccc2cc(S(=O)(=O)N3CCCCC3)ccc2n1,19%
Cc1nc2c(-c3ccccc3)c(C)nn2c(C)c1CCC(=O)NCc1ccc(Cl)cc1,-2%
CC(C)CNC(=O)CCSc1nc(-c2ccc3c(c2)OCO3)cc(C(F)(F)F)n1,-5%
CCCNC(=O)C1CCN(c2nc3ccc(C)cc3[nH]2)CC1,-9%
COc1cc(CCNC(=O)c2ccc3c(c2)c(C)c(C)n3Cc2cccc(C)c2)cc(OC)c1OC,17%
COc1ccc(NC(=O)C(=O)NCC(c2cccnc2)N2CCc3ccccc3C2)cc1 (stereo not drawn),28%
CC(=O)c1ccc(N2CCN(C(=O)Nc3cn(CC(C)C)c(=O)c4ccccc34)CC2)cc1,6%
CCOc1cccc(C(=O)Nc2nc3c(s2)CC(C(C)(C)C)CC3)c1 (stereo not drawn),-3%
CC1CC(=O)N(CC(=O)Nc2ccc(OC(F)(F)F)cc2)c2ccccc2S1 (stereo not drawn),10%
COc1cc(C(=O)Nc2cc(C)ccc2OCc2cc(=O)n3cc(C)sc3n2)cc(OC)c1OC,-1%
Cc1c(C(=O)NCCc2ccc(S(N)(=O)=O)cc2)sc2nc3n(c(=O)c12)CCCC3,2%
COc1ccc(NC(=O)CCS(=O)(=O)c2nc(-c3cccs3)cc(C(F)(F)F)n2)cc1OC,?

# Part of the list above, as tab-separated lines.
Compound	miR-21 reporter
CCOc1cccc(C(=O)Nc2nc3c(s2)CC(C(C)(C)C)CC3)c1 (stereo not drawn)	-3%
CC1CC(=O)N(CC(=O)Nc2ccc(OC(F)(F)F)cc2)c2ccccc2S1 (stereo not drawn)	10%

# Next part.
SMILES,miR-21 reporter
CCN1C(=NCCc2cccs2)N[C@@H](CCc2ccccc2)[C@H](C(=O)NCCc2cccs2)[C@H]1C,7%
Cc1c(C(=O)N2CCC(C)CC2)c(S(=O)(=O)Nc2ccc(OC(F)(F)F)cc2)c(C)n1C,1%
COc1ccc(OC)c(C(=O)c2c(N)c(-c3nc(-c4ccc(C)c(C)c4)cs3)c3ccccn23)c1,-7%
CCOC(=O)c1c(-c2ccccc2)oc2ccc(OCc3ccccc3Br)cc12,-1%
COc1ccc(C2=C(C)C(N3CCC(C(=O)Nc4cc(C)ccc4C)CC3)=NS2(=O)=O)cc1,-11%
CCc1c(C)c2ccc3c(c2oc1=O)CN(Cc1ccccc1)CO3,-1%
COc1ccc(-c2nn(-c3ccc(C)c(Cl)c3)c3c2cnc2cc(OC)c(OC)cc23)cc1,-1%
Cc1cc(C)c(NC(=O)Cn2c(=O)n(Cc3ccc(C(=O)NCc4ccc5c(c4)OCO5)cc3)c(=O)c3ccccc32)c(C)c1,-8%
CCCOc1ccc(C2c3c(oc4ccccc4c3=O)C(=O)N2c2nc(C)c(C(=O)OCC)s2)cc1 (stereo not drawn),3%
Cc1cc(C)c2oc(C(=O)Nc3sc4c(c3C(=O)NCc3ccco3)CCCC4)cc(=O)c2c1,-2%
CCc1ccc(-n2nc3cc(C)c(NC(=O)c4cc(OC)cc(OC)c4)cc3n2)cc1,-22%
COc1ccc(CNC(=O)C2CCN(Cc3nc(-c4ccc(OC)c(OC)c4)oc3C)CC2)cc1,-9%
Cc1ccc(NC(=O)c2ccc(CNS(=O)(=O)c3ccc4c(c3)C(C)(C)C(=O)N4C)cc2)cc1,-10%
COc1cc2[nH]c(=O)n(CCCCCC(=O)N3CCN(c4ccc(Cl)cc4)CC3)c(=O)c2cc1OC,3%
Cc1ccc(NC(=O)Cn2c(-c3cncs3)nc3ccccc32)c(Br)c1,-2%
CCc1ccc2oc(C(=O)Nc3cccc(C(F)(F)F)c3)cc(=O)c2c1,-2%
CCc1ccc(Nc2n[n+](-c3ccccc3)c(/C=C/c3ccccc3)s2)cc1,7%
Cc1ccccc1C(=O)N(Cc1nc(-c2ccc(Cl)cc2)no1)C(C)C,11%
NC(=O)C1(N2CCCCC2)CCN(C(=O)Nc2ccc(C(F)(F)F)cc2)CC1,2%
CCc1ccccc1NC(=O)Nc1cc(C(=O)NCc2ccc(C(C)C)cc2)ccc1N1CCCC1,-12%

# A run of entries taken from the entries so far, as a working copy:
SMILES,miR-21 reporter
CCN1C(=NCCc2cccs2)N[C@@H](CCc2ccccc2)[C@H](C(=O)NCCc2cccs2)[C@H]1C,7%
Cc1c(C(=O)N2CCC(C)CC2)c(S(=O)(=O)Nc2ccc(OC(F)(F)F)cc2)c(C)n1C,1%
COc1ccc(OC)c(C(=O)c2c(N)c(-c3nc(-c4ccc(C)c(C)c4)cs3)c3ccccn23)c1,-7%
CCOC(=O)c1c(-c2ccccc2)oc2ccc(OCc3ccccc3Br)cc12,-1%
COc1ccc(C2=C(C)C(N3CCC(C(=O)Nc4cc(C)ccc4C)CC3)=NS2(=O)=O)cc1,-11%
CCc1c(C)c2ccc3c(c2oc1=O)CN(Cc1ccccc1)CO3,-1%

# Next part.
SMILES,miR-21 reporter
CCc1cccc(C)c1NC(=O)c1cc(S(=O)(=O)N2CCCCCC2)cn1C,-1%
Cc1cc(C(F)F)n2nc(C(=O)Nc3cccc(Cl)c3C)nc2n1,-15%
CCc1ccc(NC(=O)CSc2cn(CC(=O)N3CCOCC3)c3ccccc23)cc1,-21%
Cn1c(=O)c2sccc2n2c(CCCC(=O)Nc3ccc(F)c(F)c3)nnc12,17%
CCn1nnc2cc(C(=O)Nc3cccc(Cl)c3C)ccc21,6%
O=C(NC1(C(F)(F)F)N=C(c2ccccc2)N(Cc2ccccc2)C1=O)c1ccc(F)cc1 (stereo not drawn),7%
CCCN(CCC)C(=O)C1CCCN(S(=O)(=O)c2cc(Br)cc3c2N(C(=O)CC)CC3)C1 (stereo not drawn),-2%
O=C(OCc1ccccc1F)c1ccc(-c2nnn(Cc3ccccc3)n2)cc1,0%
COc1ccc(C(=O)N(Cc2ccc(N(C)C)cc2)CC2CCCO2)cc1 (stereo not drawn),-3%
COc1ccc(Cn2ccc3nc(C)c(C(=O)NCc4ccc(SC)cc4)cc3c2=O)cc1,-8%
CCn1c(C(=O)NCc2ccccc2Cl)cc2sc(Cl)cc21,-1%
CCOc1ccc(NC(=O)c2ccc3c(c2)nnn3C2CCCC2)cc1,-3%
COCCCNC(=O)c1ccc(Cn2c(=O)c3ccccc3n(CC(=O)Nc3ccc(C)cc3C)c2=O)cc1,-2%
Cc1ccc(-n2ncc(C(=O)NCCc3ccsc3)c2C2CCN(C(=O)OC(C)(C)C)CC2)cc1C,?
CSc1ccc(-c2nnn(CC(=O)Nc3sc4c(c3C#N)CCC(C(C)(C)C)C4)n2)cc1 (stereo not drawn),1%
CCC(C)Cn1c(/C=C/c2ccccc2)nc2ccccc21 (stereo not drawn),-9%
Cc1ccc(-c2nc3cc(NC(=O)c4cc(Br)ccc4Cl)ccc3o2)cc1,-38%
CC1CCN(C(=O)c2cnn(-c3ccc(Cl)cc3)c2C2CCN(C(=O)OC(C)(C)C)CC2)CC1,0%
O=C(c1ccc(CSc2nc3ccncc3n2Cc2ccccc2F)cc1)N1CCCCC1,-24%
COc1ccc(NC(=O)CC2C(=O)N(c3cccc(OC)c3)C(=O)N2Cc2cccnc2)cc1 (stereo not drawn),-2%

# Sorted by value in miR-21 reporter (highest first): 3 from the list above
compound	miR-21 reporter
CCn1nnc2cc(C(=O)Nc3cccc(Cl)c3C)ccc21	6%
CSc1ccc(-c2nnn(CC(=O)Nc3sc4c(c3C#N)CCC(C(C)(C)C)C4)n2)cc1 (stereo not drawn)	1%
CCn1c(C(=O)NCc2ccccc2Cl)cc2sc(Cl)cc21	-1%

# The list continues:
SMILES,miR-21 reporter
O=C(NCCc1ccc(F)cc1)C(=O)NCC(c1cccs1)S(=O)(=O)c1ccc(Cl)cc1 (stereo not drawn),27%
COc1ccc(N2CCN(C(=O)CCn3c(=O)c4cccn4c4cccnc43)CC2)cc1,1%
CCOC(=O)c1ccc(NC2SC(=O)N(Cc3cccc(C(=O)O)c3)C2=O)cc1 (stereo not drawn),-6%
Cc1nnc(N2CCN(c3ccccc3F)CC2)c2c1nnn2Cc1ccc(F)cc1,8%
CCCCC(=O)OC1=C(C(=O)c2ccccc2)N(CC)S(=O)(=O)c2ccccc21,-1%
CCc1ccc(NC(=O)N2CC(C)Oc3ccc(C)cc32)cc1 (stereo not drawn),-2%
CCCSc1nnc(NC(=O)c2cc(=O)c3ccccc3o2)s1,-2%
CCOc1ccc(CCNC(=O)C2CCC(CNS(=O)(=O)c3ccc(Cl)cc3)CC2)cc1OCC (stereo not drawn),-3%
Cc1ccc(N2CCN(S(=O)(=O)c3ccc(F)c(C(=O)Nc4ccc(Cl)cc4Cl)c3)CC2C)cc1 (stereo not drawn),4%
CCN(C(=O)Cn1c(=O)n(-c2ccccc2)c(=O)c2ccc(C(=O)NCc3ccc4c(c3)OCO4)cc21)c1cccc(C)c1,16%
CCc1ccc(CNC(=O)CN2C(=O)C3CCCCN3c3ccc(C(=O)N4CCCC4)cc32)cc1 (stereo not drawn),-2%
N#Cc1cccc(NC(=O)c2cc3c(s2)-c2ccc(Cl)cc2SC3)c1,-7%
COc1ccccc1Cc1nc2ccccc2nc1SCC(=O)N1CCC(C)CC1,9%
CCN(C(=O)c1cn(CC)c(=O)c2cc(OC)c(OC)cc12)c1ccc(C)c(C)c1,7%
COc1ccc(-c2nn(-c3ccc(F)cc3)c3c2cnc2cc4c(cc23)OCO4)cc1,-2%
COc1ccc(Cl)cc1NC(=O)CSc1cn(CC(=O)N2CCCCCC2)c2ccccc12,30%
COc1ccccc1OC(C)C(=O)NCC1(N2CCOCC2)CCCCC1 (stereo not drawn),-2%
CC(C)Cc1nn2cc(-c3cccc(Br)c3)nc2s1,25%
COC(=O)CCSc1nc2sc3c(c2c(=O)n1Cc1ccccc1)CCC(C(C)(C)C)C3 (stereo not drawn),1%
COc1ccc2c(c1)c(N1CCCC1=O)c(C(=O)Nc1ccccc1C(F)(F)F)n2C,12%

# The last two entries of the section above open the next one.
SMILES,miR-21 reporter
COC(=O)CCSc1nc2sc3c(c2c(=O)n1Cc1ccccc1)CCC(C(C)(C)C)C3 (stereo not drawn),1%
COc1ccc2c(c1)c(N1CCCC1=O)c(C(=O)Nc1ccccc1C(F)(F)F)n2C,12%
O=C(NCc1ccccc1F)C(=O)NCC(c1cccs1)S(=O)(=O)c1cccs1 (stereo not drawn),2%
CCc1ccc(S(=O)(=O)c2nnn3c2nc(Nc2ccc(F)cc2)c2cc(Cl)ccc23)cc1,-4%
CC(C)OC(=O)c1c(NC(=O)COc2cccc(Br)c2)sc2c1CCCC2,-11%
Cc1ccc(-n2c(=O)c3c(cnn3C)n(CC(=O)Nc3ccc(C)cc3C)c2=O)cc1,-1%
Cc1ccccc1Cn1c(=O)n(Cc2ccc3c(c2)OCO3)c(=O)c2oc3ccccc3c21,0%
COc1ccc(CCCc2nnc(SCC(=O)Nc3cccc(C)c3)o2)cc1C,-4%
O=C(NCCC1=CCCCC1)c1ccc2c(c1)N(Cc1ccc(F)cc1)C(=O)c1ccccc1S2(=O)=O,10%
COc1ccccc1N1CCN(C(CNC(=O)C(=O)NCc2cccnc2)c2cccnc2)CC1 (stereo not drawn),?
CN1CCN(C(c2ccccc2Cl)c2sc3nc(-c4ccco4)nn3c2O)CC1 (stereo not drawn),-2%

# Assay outcomes (PubChem)
